NPYLR7 ag = agonists of mosquito NPYLR7 receptor, primary screen, cell-based, Aedes aegypti, calcium fluorescence, mosquito biting behavior. activation, % at 10 µM. HEK293T NPYLR7/Galpha15, GCaMP6s calcium fluorescence. AID 1259423, 2018. 270,000 compounds, 0.15% hits; in the data active means activation above about 40%;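 further: 0% = vehicle and 100% = reference agonist at the receptor; some compounds past the cut are filed as inactive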
NPYLR7 ag max-min = recorded beside NPYLR7 ag, whose call it bears; activation, %; measured here: Max-Min RFU normalised activation; some inactives read as strong as hits;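 span of the calcium signal over five minutes; 0% = vehicle and 100% = native peptide agonist; compound fluorescence can raise it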
* hit, by the source's call; & = joins results of further samples.

SMILES	NPYLR7 ag	NPYLR7 ag max-min
CC(=O)NCCNC(=O)CC1(C)N=C(c2ccccc2C)N(C)O1 (stereo not given)	8	5
O=C(NCCNC(=O)C1CCN(C(=O)Cc2ccccc2)CC1)c1ccccc1	2	0
CC1=CC2=NS(=O)(=O)CCN2C=C1	5	4
CCOC(=O)c1c(C)nn(-c2ccc(C(=O)NCCc3ccccc3)cc2)c1C	5	9
Cc1ccc(CN(Cc2ccc3c(c2)OCO3)Cc2cnc(C)[nH]2)cc1	17	4
CCC(CC)S(=O)(=O)Nc1cccc(C(=O)N(CC)CC)c1	13	8
COc1cc(CNn2nnnc2N)cc(Br)c1OCc1c(Cl)cccc1Cl	-12	-19
CCc1nc2ccc(C(=O)NCc3ccc(OC)cc3)cn2c1N(C)C(=O)c1cccc(OC)c1	11	14
CCNC(=O)C1(C)CCCN1C(=O)c1cccnc1SC (stereo not given)	1	-1
O=C(/C=C/c1ccncc1)NCc1ccc(Cl)s1	13	11
CCCNc1nccnc1-c1ccc2c(c1)OCO2	-4	-8
CC1CN(c2ncnc3c2nnn3C)CC(C)O1 (stereo not given)	12	7
CN(C1CCCC1)S(=O)(=O)CCn1nnc(-c2ccccc2)n1	4	3
O=C(Cc1ccccc1)N1CCCC(OCc2ccc(C(F)(F)F)cc2)C1 (stereo not given)	-8	-2
Cc1cccc(C2(C)Nc3ccccc3C(=O)N2C)c1 (stereo not given)	12	5
COc1ccc(OC)c(C(=O)CSc2nnc(-c3ccncc3)n2-c2cccc(C(F)(F)F)c2)c1	0	8
CN(C(=O)NC1CC1)C1CCCC1S(C)(=O)=O (stereo not given)	-4	38
Cc1ccc(-c2n[nH]c(=S)n2CCC(=O)N2CCCC(C)C2)cc1 (stereo not given)	0	-2
O=C(Nc1ccc(SCC(=O)N2CCOCC2)nn1)c1ccccc1F	-8	-14
Nc1ccccc1N1C(=O)CSC1=O	6	5
C=CCN(Cc1ccc2c(c1)OCCCO2)Cc1ccco1	8	8
NCC1Cc2cccc(-c3ccc4ncnc(N)c4c3)c2O1 (stereo not given)	13	4
O=C(Cn1cnnn1)Nc1nc(-c2cccc3ccccc23)cs1	0	-1
O=C(NC1CC1)C(c1ccccc1)N1CCN(S(=O)(=O)c2ccc(Cl)c(Cl)c2)CC1 (stereo not given)	-6	-8
O=C(c1csc(Cc2ccccc2)n1)N1CCCC(O)(CO)CC1 (stereo not given)	1	-1

The list continues:
SMILES	NPYLR7 ag	NPYLR7 ag max-min
COc1ccc(OC)c(NC(=O)C2(C)CCN2Cc2cccc(OC)c2OC)c1 (stereo not given)	6	1
COc1ccc(OC)c(C(=O)Nc2nnc(Cc3cccs3)o2)c1	-8	-9
O=c1c2c3c(sc2ncn1Cc1ccccc1Cn1cccn1)CNCC3	3	-1
C=CCN1C[C@H]2COc3c(OCC)cccc3[C@H]2N(C(=O)c2ccno2)CCC1=O	2	9
CCOC1CCCN(CC(=O)c2cc(C)n(CC)c2C)C1 (stereo not given)	1	-1
c1ccc2c(c1)CCN(c1nc3ccccc3n3cnnc13)C2	2	1
COC(=O)c1c(NC(=O)c2ccc(OC)cc2)c2cc(NCc3ccccc3)cnc2n1C	17	5
COc1cc2ncc(C(=O)c3ccccc3)c(N3CCC(C(N)=O)CC3)c2cc1OC	-10	-11
CN(C)c1nc(-c2ccncc2)nc2c1CCN(C(=O)CN1CCCC1)C2	4	2
Cn1cc(C=CC(=O)N2CCN(S(=O)(=O)c3ccc(Cl)c(Cl)c3)CC2)cn1	0	10
CCOc1cc(-c2n[nH]c(=S)o2)cc(OCC)c1OCC	1	1
Clc1nc(N2CCCC2)sc1CNC1COc2ccccc2C1 (stereo not given)	7	4
c1ccc(-c2ncc3ccccn23)cc1	4	7
Cc1ccc(-c2ccc(S(N)(=O)=O)cc2F)c(-n2cccn2)c1	3	2
CCNC(=O)c1csc(COc2ccc(C)c(C)c2)n1	-22	-19
O=C(CSc1c(-c2ccccc2)[nH]c2ccccc12)Nc1nccs1	7	4
Cc1noc(C)c1CNC(=O)c1csc(-c2ccc(OC(C)C)cc2)n1	10	7
CC(C)OC(=O)C(C)NC(=O)C1CCC1 (stereo not given)	-3	-6
O=C(O)c1cc2c(s1)-c1ccc(Cl)cc1SC2	0	-1
c1ccc(-c2ccc(CSC3=NCCN3)cc2)cc1	6	5
O=C(Nc1cccc2ccccc12)c1ccc2sc([C@H]3C[C@H](O)[C@@H](CO)O3)nc2c1	0	-1
CC(C)OCCCNC(CC(=O)Nc1ccccc1Br)C(=O)O (stereo not given)	7	4
Cc1ccsc1CN(CCN(C)C)C(=O)c1cc(=O)c2ccccc2[nH]1	-6	-9
CCOC(=O)Cn1c(C)nc2c(C(=O)OCC)sc(C)c2c1=O	3	3
O=C(O)CC1COCCN1C(=O)c1ccc(NC(=O)C2CCC2)cc1 (stereo not given)	1	3

Following part:
SMILES	NPYLR7 ag	NPYLR7 ag max-min
COc1ccc(-c2nc(CSc3cccc4cccnc34)cs2)cc1OC	16	21
CCOC(=O)C1CCN(C(=O)c2cc(-c3ccc(Cl)cc3)n(-c3cccc(C)c3)c2C)CC1	-13	-1
COC(=O)C(CCSC)n1cc2ncccc2c1O (stereo not given)	4	-2
O=C(NC1CCOc2ccccc21)c1cc2c(s1)CCCC2 (stereo not given)	3	2
Cc1cccc(CC2SC(N3CCN(c4ccccc4)CC3)=NC2=O)c1 (stereo not given)	9	4
CC1(C(=O)NS(=O)(=O)Cc2ccccc2)CCN1C(=O)CCc1cccs1 (stereo not given)	-3	-12
CC(=O)Nc1ccc(C(=O)CN2CCCSC2=Nc2ccccc2Cl)cc1	-2	-4
Cc1cc(C)c2c(N)c(-c3cc(=O)oc4c(C)c(O)ccc34)sc2n1	8	6
CC(=O)N1c2c(ccc3ccccc23)C(C)CC12CCCCC2 (stereo not given)	-5	-15
CCN1CCN(C(=O)c2ccc(CSc3nnc(-c4ccccc4[N+](=O)[O-])n3-c3ccc(C)cc3)cc2)CC1	13	6
COc1ccc(C(=O)NS(C)(=O)=O)c(Br)c1	2	1
Cc1[nH]n(-c2nc(-c3cccc([N+](=O)[O-])c3)cs2)c(=O)c1N=Nc1ccc(Cl)c(Cl)c1	4	15
C=CCn1cc(-c2c(-c3ccccc3)ncn2[C@H](CO)c2ccccc2)cn1	8	4
O=C1CC(=NCC2CCCO2)C2(CCCCC2)O1 (stereo not given)	5	3
CCCS(=O)(=O)N1CCN(CCNC(=O)C2CCC2)CC1	4	4
CCNC(=O)Cc1ccc(-n2cnc(-c3cccs3)c2)cc1	-1	-6
COc1cc(OC)cc(C(=O)N(CC(=O)N(Cc2cccn2Cc2ccc(F)cc2)C2CCCCC2)CC(C)C)c1	-4	1
N#CC(=Cc1ccc(Br)s1)c1nc2ccccc2[nH]1	-3	-3
CC1CN(c2ncnc3c2cnn3CCNC(=O)CCc2ccccc2)CC(C)O1 (stereo not given)	-3	-2
COCCCNc1cc(Cl)nc(N)n1	-1	-3
CC1(C)Cc2c(ccc3ccccc23)C(CCN2CCCCC2)=N1	-8	-12
Cc1nc(C)c(C(=O)N2CCC(N3CCCC(C(=O)NC4CC4)C3)CC2)s1 (stereo not given)	-7	-10
CC1=C(c2ccc(C)cc2)S(=O)(=O)N=C1N1CCCC1	-2	-6
Cc1ccc(C2(O)CCN(C(=O)c3cccc4c3OCC4)CC2)nc1	6	2
CCc1cccc(C)c1NC(=O)Cn1nc(-c2ccc(F)cc2)c2sc(N3CCCC3)nc2c1=O	-3	-2

Reprinted from the listing (19 entries):
SMILES	NPYLR7 ag	NPYLR7 ag max-min
CC(=O)Nc1ccc(C(=O)CN2CCCSC2=Nc2ccccc2Cl)cc1	-2	-4
Cc1cc(C)c2c(N)c(-c3cc(=O)oc4c(C)c(O)ccc34)sc2n1	8	6
CC(=O)N1c2c(ccc3ccccc23)C(C)CC12CCCCC2 (stereo not given)	-5	-15
CCN1CCN(C(=O)c2ccc(CSc3nnc(-c4ccccc4[N+](=O)[O-])n3-c3ccc(C)cc3)cc2)CC1	13	6
COc1ccc(C(=O)NS(C)(=O)=O)c(Br)c1	2	1
Cc1[nH]n(-c2nc(-c3cccc([N+](=O)[O-])c3)cs2)c(=O)c1N=Nc1ccc(Cl)c(Cl)c1	4	15
C=CCn1cc(-c2c(-c3ccccc3)ncn2[C@H](CO)c2ccccc2)cn1	8	4
O=C1CC(=NCC2CCCO2)C2(CCCCC2)O1 (stereo not given)	5	3
CCCS(=O)(=O)N1CCN(CCNC(=O)C2CCC2)CC1	4	4
CCNC(=O)Cc1ccc(-n2cnc(-c3cccs3)c2)cc1	-1	-6
COc1cc(OC)cc(C(=O)N(CC(=O)N(Cc2cccn2Cc2ccc(F)cc2)C2CCCCC2)CC(C)C)c1	-4	1
N#CC(=Cc1ccc(Br)s1)c1nc2ccccc2[nH]1	-3	-3
CC1CN(c2ncnc3c2cnn3CCNC(=O)CCc2ccccc2)CC(C)O1 (stereo not given)	-3	-2
COCCCNc1cc(Cl)nc(N)n1	-1	-3
CC1(C)Cc2c(ccc3ccccc23)C(CCN2CCCCC2)=N1	-8	-12
Cc1nc(C)c(C(=O)N2CCC(N3CCCC(C(=O)NC4CC4)C3)CC2)s1 (stereo not given)	-7	-10
CC1=C(c2ccc(C)cc2)S(=O)(=O)N=C1N1CCCC1	-2	-6
Cc1ccc(C2(O)CCN(C(=O)c3cccc4c3OCC4)CC2)nc1	6	2
CCc1cccc(C)c1NC(=O)Cn1nc(-c2ccc(F)cc2)c2sc(N3CCCC3)nc2c1=O	-3	-2

(continued)
SMILES	NPYLR7 ag	NPYLR7 ag max-min
Cc1cccc(=O)n1CCC(=O)N1CCNCC1C(=O)N1CCOCC1 (stereo not given)	11	7
O=c1[nH]cnc2cc([N+](=O)[O-])ccc12	1	1
CCCCN(CCC(=O)N1CCN(C(C)=O)CC1)c1nc(Cc2ccc(C)cc2)ns1	10	7
CNC(=O)c1ccc(CN2CCC(N3CCCC3=O)CC2)o1	2	-2
c1ccn2c(C3CCCN(c4ncnc5c4CCNC5)C3)nnc2c1 (stereo not given)	3&1	16&-2
CCOC(=O)c1c(NC(=O)c2cncc(Br)c2)c(-c2cccc(F)c2)cn1C	1	-1
CC(CCc1ccco1)NC(=O)N1CCCN(C(=O)Oc2ccccc2)CC1 (stereo not given)	4	-1
CC(C)N1C[C@H](O)[C@@H](n2cnc(-c3ccccc3)c2-c2cccc(C#N)c2)C1	10	7
CN1CCN(c2cc(-c3cccc(OC(F)(F)F)c3)nc3ccnn23)CC1	-4	-6
Cc1cc(C)cc(-c2ccc(-n3cncc3C(=O)NCc3ccc(OC(F)(F)F)cc3)cc2)c1	12	9
CCN1CCN(C(=O)c2ccc(N3CCC(N4CCC(Oc5ccc(F)cc5)CC4)CC3)cc2)CC1	-1	-7
CCNC(=O)[C@@H]1C[C@H](N)CN1Cc1ccccc1OCc1ccccc1	10	1
O=C1C2C3C=CC(C4CC34)C2C(=O)N1CC(=O)n1nnc2ccccc21 (stereo not given)	-9	-11
Cc1cc(C)c(NC(=O)CN2CCN(S(=O)(=O)c3ccc(Cl)s3)CC2)c(C)c1	1	-3
CC(=O)c1cccc(-c2ccc3c(c2)C(C)(Cc2ccccc2C#N)C(=O)N3)c1 (stereo not given)	4	4
Cc1ccc(C(=O)O)cc1OCc1csc(Br)c1	-5	-7
CC(C)c1nnc(-c2cc3ccccc3n2CC(=O)N(C(C)C)C(C)C)o1	10	7
N=C(N)N1CCC2CCCCC2C1 (stereo not given)	2	14
COC(=O)N[C@@H](C)CNc1nccc(-c2cn(C(C)C)nc2-c2cc(Cl)cc(NS(C)(=O)=O)c2F)n1	4	-4
BrC12C3C4C5C3C1C(C4C21OCCO1)C51OCCO1 (stereo not given)	-3	-6
CCCCCCCCCC(=O)N(CCC)Cc1nc(C(=O)OC)cs1	-7	3
Cc1ccc(S(=O)(=O)C(C#N)=Cc2ccccc2Br)cc1	2	0
COc1ccc(NC(=O)[C@@H](OC)c2ccccc2)c(NC(=O)C(C)C)c1	26	14
O=C(NCCc1ccc(O)cc1)C1CC=CCC1C(=O)N1CCc2c([nH]c3ccccc23)C1 (stereo not given)	-7	-17
N#Cc1ccc(C=C2N=C(c3cccc(Br)c3)OC2=O)cc1	8	6

Next structures follow:
SMILES	NPYLR7 ag	NPYLR7 ag max-min
CCC(CC)NC(=O)CN(C)S(=O)(=O)c1ccc(F)cc1	5	1
COC(=O)Cc1c(C)c2c(OCC(=O)c3ccc(F)cc3)cc(C)cc2oc1=O	-10	-15
CC1(C(=O)Nc2cnc3ccccc3c2)CCN1Cc1ccc(OC(F)(F)F)cc1 (stereo not given)	13	9
Cc1cc(C)cc(-c2nc3nc(C)cc(C)n3c2N)c1	15	5
Cc1cc(N2CCCCC2)nc(Nc2ccc(NC(=O)C3CCCC3)cc2)n1	1	-4
C=CCc1cc(CNC(=O)CCc2cnn(C)c2)cc(OC)c1OC	-8	-9
O=C1COCc2ccc(-c3cnc4ccccc4c3)cc2N1CC1CC1	5	3
O=C(CN1CCOC1=O)N1CCC2(CCCN(CCCc3ccccc3)C2)C1 (stereo not given)	10	3
CC(C)c1ccc(NC(=O)C2CC=CCC2C(=O)N2CCc3ccccc3C2)cc1 (stereo not given)	-4	-11
OCc1c(Cl)ncn1-c1cccc2ccccc12	0	-6
COc1cccc(N=C2SCC(C)(C)N2C(=O)C2CCCCC2)c1	0	-1
Cc1nn(C)cc1CN(C)C(=O)CC(c1ccccc1)c1ccccc1	-1	-2
Cc1ccc(-n2c(SCc3cc(F)ccc3F)nnc2-c2cccc(C)c2)cc1	-4	9
COc1ccc2cc(C(=O)C3CCCN(C(=O)c4csnn4)C3)ccc2c1 (stereo not given)	2&2	0&-1
CC(C)=C1C2C=CC1C1C(=O)N(c3ccc(Cl)cc3[N+](=O)[O-])C(=O)C21 (stereo not given)	-2	-2
CC(=O)N1CCN(C(=O)/C=C/c2cccc(OCc3ccccc3)c2)CC1	10	7
CC1CN(C2CCCCC2)c2nc3c(c(=O)n(CCN4CCCCC4)c(=O)n3C)n2C1 (stereo not given)	7	3
c1ccc(CSc2ccc3nnc(-c4ccccn4)n3n2)cc1	-2	-4
Cn1ccnc1SCc1cc(=O)c(OC(=O)c2ccccc2[N+](=O)[O-])co1	8	3
O=C(C1=C(O)C(=O)N(CCCN2CCOCC2)C1c1ccc(Cl)cc1)c1cccs1 (stereo not given)	0	0

High-throughput results as filed in PubChem.

Some of the compounds tested (hit frequency here may not be typical).
